Screening results from PubChem.
KCNQ2 enhance = potentiators of rat KCNQ2 potassium channel; B-score at 10 µM; actives 0.54% (n = 310,000); AID 2239, 2010; CHO-K1 KCNQ2, FluxOR thallium flux fluorescence; hits give high values; Potassium voltage-gated channel subfamily KQT member 2 (Rattus norvegicus), O88943;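 active = fluorescence ratio B-score at least 3 SD of library B-scores, with initial fluorescence B-score within 3 SD, cut at about 5.3 in these data; same plate scores as AID 2156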;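 also: B-score of peak minus minimum over baseline fluorescence ratio after K+ and Tl+ stimulus; positive B-score means potentiation of KCNQ2 with more thallium influx and brighter signal; only the inactives scoring about 0 or higher are listed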
Target sequence (O88943 whole entry, looked up): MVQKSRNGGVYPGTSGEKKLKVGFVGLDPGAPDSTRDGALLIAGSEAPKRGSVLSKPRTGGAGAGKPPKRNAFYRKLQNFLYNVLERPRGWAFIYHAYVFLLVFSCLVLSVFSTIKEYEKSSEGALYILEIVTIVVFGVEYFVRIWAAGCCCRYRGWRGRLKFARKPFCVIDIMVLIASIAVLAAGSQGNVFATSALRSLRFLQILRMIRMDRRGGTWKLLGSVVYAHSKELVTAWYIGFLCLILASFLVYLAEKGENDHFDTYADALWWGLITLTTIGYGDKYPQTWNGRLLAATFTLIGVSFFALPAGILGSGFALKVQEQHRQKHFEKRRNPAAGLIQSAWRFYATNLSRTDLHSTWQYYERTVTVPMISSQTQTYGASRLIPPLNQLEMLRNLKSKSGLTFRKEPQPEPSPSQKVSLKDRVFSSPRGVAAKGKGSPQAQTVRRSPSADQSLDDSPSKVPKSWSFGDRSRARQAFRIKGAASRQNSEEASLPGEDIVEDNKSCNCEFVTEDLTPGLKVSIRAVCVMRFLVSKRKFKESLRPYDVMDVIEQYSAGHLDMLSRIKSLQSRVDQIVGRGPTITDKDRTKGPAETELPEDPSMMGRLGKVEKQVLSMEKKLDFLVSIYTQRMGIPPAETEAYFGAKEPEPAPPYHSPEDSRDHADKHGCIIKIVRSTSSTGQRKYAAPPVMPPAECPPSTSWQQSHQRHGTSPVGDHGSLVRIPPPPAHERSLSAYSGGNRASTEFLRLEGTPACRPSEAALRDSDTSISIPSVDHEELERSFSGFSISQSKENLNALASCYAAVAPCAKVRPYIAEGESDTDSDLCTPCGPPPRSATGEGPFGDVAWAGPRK
KCNQ2 enhance baseline = second read-out of KCNQ2 enhance, no call of its own (marks repeat the call); B-score; compound at 10 µM; measured here: initial fluorescence intensity artifact check;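 brightness before thallium and not channel activity; 0 = typical well and far values either way flag optical interference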
Numbers without * were called inactive; / = no result given.

SMILES	KCNQ2 enhance	KCNQ2 enhance baseline
Cc1cc(C(=O)CSc2nnnn2-c2ccc(O)cc2)c(C)n1C	1.9	-0.1
CC(=O)Nc1ccc(S(=O)(=O)N2CCC(NC(=O)c3ccccc3)CC2)cc1	0.18	0.94
O=C(N/N=C/c1cccs1)C1COc2ccccc2O1 (centres undefined)	1.2	-0.07
NC(=S)N/N=C/c1ccccc1OCCSc1ccc(Cl)cc1	1	0
Cc1ccc(S(=O)(=O)NCCC(=O)N2CC(C)OC(C)C2)cc1 (centres undefined)	0.39	-3.6
COc1ccc(C2(C(=O)NC(C)C)CCCC2)cc1OC	0.06	1.6
CCOc1ccc(S(=O)(=O)Nc2cccc(C(=O)NCC3CCCO3)c2)cc1 (centres undefined)	0.73	-1.2
Cc1ccc(NC(=O)c2ccc3c(c2)OCCO3)cc1C	0.89	-0.34
C=CCN1C(=O)c2ccc(C(=O)N(C)CC(=O)Nc3ccc(Br)cc3C)cc2C1=O	0.32	-0.6
COc1ccccc1CNS(=O)(=O)c1cc2c3c(c1)CCN3C(=O)CC2	0.44	0.6
Cc1ccc(OCCSc2ncnc3nc[nH]c23)cc1	0.88	0.57
COc1ccccc1CN1CC(C(=O)NCC2CCCO2)CC1=O (centres undefined)	0.08	-0.33
O=C1NC(=O)C(c2ccccc2)(c2ccccc2)N1	0.72	/
O=C(NCc1cccc(CNC(=O)Nc2cccc(O)c2)c1)Nc1cccc(O)c1	0.6	0.9
CCOc1ccc(OCCCCn2ccnc2)cc1	1.9	-0.18
COc1ccc(CCNC(=O)Cn2ccc3cc(S(=O)(=O)N4CCCC4)ccc32)cc1OC	1	0
N#CCCN(Cc1ccccc1)C(=O)c1nccnc1C(=O)O	0.98	1.5
Cc1cccc(Cc2ccc(Cl)nn2)c1	0.02	1.1
COc1cc(/C=N/NC(=O)c2ccc(F)cc2)ccc1OC(=O)c1ccco1	0.26	1.6
O=C(NCc1ccccc1)N1CCC(CO)(Cc2cccc(F)c2)CC1	0.66	-0.12
O=C(c1ccc(F)cc1F)N1CCC(N2CCC(C(=O)N3CCOCC3)CC2)CC1	0.43	-2.1
Cn1cccc1Cc1nnc(SCC(=O)NCC2CCCO2)n1CCc1ccccc1 (centres undefined)	1.3	-1.3
O=C1C=C(NNC(=O)c2ccncc2)CC(c2ccccc2)C1 (centres undefined)	1.4	0.1
CCN(CC)c1c([N+](=O)[O-])c(=O)oc2ccccc12	0.62	0.25
O=C(/C=C/c1cc([N+](=O)[O-])ccc1OC(F)F)Nc1cccc2ccccc12	0.06	-1.4
O=C(CSc1nnc(-c2ccc(Cl)cc2)o1)NNC(=O)c1ccncc1	0.41	0.01
COc1ccccc1NC(=O)CN(C)S(=O)(=O)c1ccc(F)cc1	0.79	-0.54
COc1ccc(C2CC(c3ccc(OC)cc3)n3nc(NC(=O)c4cccs4)nc3N2)cc1 (centres undefined)	0.3	0.12
COc1cc(C)c(Cl)cc1S(=O)(=O)n1cnc2ccccc21	0.08	-0.14
O=C(CSc1nc2ccccc2s1)N1CCCCC1	0.64	0.6
c1cnc(Nc2nc(-c3ccc4ccccc4c3)cs2)nc1	0.98	0.21
O=C(c1cccnc1)N1CCN(Cc2cccc(F)c2)CC1	1.5	2.1
Cn1cccc1/C=N/n1c(-c2ccco2)n[nH]c1=S	0.7	-1.1
CS(=O)(=O)c1ccccc1-c1nc(-c2cccc(Cl)c2)no1	0.59	0.22
COC(=O)C(NC(=O)CCc1nnc2ccc(N3CCC(C)CC3)nn12)C(C)C (centres undefined)	0.12	0
CCOc1cc(C(N)=O)cc(Cl)c1OCC	1.2	0.18
CCc1ccccc1Nc1nc(N)nc(COC(=O)CCNS(=O)(=O)c2ccccc2)n1	1.4	1.1
COc1ccc(S(=O)(=O)N2CCCC2)cc1NC(=O)c1ccccc1F	0.13	2.5
S=C(NCc1ccco1)N/N=C/c1cccnc1	2	0.02
CCC(C)(C(=O)NC1CCCC1)N(Cc1ccco1)C(=O)c1ccccn1 (centres undefined)	1.3	-0.48
Cc1ccc(C)c(C2NC(=O)c3ccccc3N2)c1 (centres undefined)	-5.6	/
CC(CN1CCC(n2nccc2NC(=O)c2ccccc2Cl)CC1)c1ccccc1 (centres undefined)	0.38	-1.7
COc1ccccc1N1CCN(S(=O)(=O)CCNC(=O)c2cccc(F)c2)CC1	2.4	-0.08
CC(=O)Nc1nc(-c2ccccc2)ns1	0.61	-0.74
COc1ccc(CN2CCOCC2)cc1	0.01	-0.76
O=C(CN1C(=O)COc2ccc(S(=O)(=O)N3CCOCC3)cc21)NCc1ccco1	1.5	-1.4
O=[N+]([O-])c1ccc(C2=Nn3cnnc3SC2)cc1	0.02	-0.4
CN(C)C(=O)NC(Nc1cccc([N+](=O)[O-])c1)C(Cl)(Cl)Cl (centres undefined)	1.7	0.27
O=C(c1ccc(Cl)c(S(=O)(=O)NCc2ccco2)c1)N1CCN(c2ccccc2F)CC1	0.01	-0.06
Fc1ccc(CN2CCN(c3ncccn3)CC2)c(F)c1	0.27	0.01
OCCNc1ncnc2c1nnn2Cc1ccccc1	1.2	2
CCOC(=O)c1c(/N=C/C2=C(O)CCCC2=O)sc2c1CCCC2	0.08	0.02
COc1ccc(S(=O)(=O)N2CCN(C(=O)c3cc(-c4ccccc4OC)n[nH]3)CC2)cc1	0.53	-0.48
Cc1nn(CCOc2ccccc2)c(=O)n1-c1cccc(F)c1	0.12	-0.36
CCc1nc(N2CCN(S(=O)(=O)c3ccc(Br)cc3)CC2)c2c(C)c(C)sc2n1	0.3	-0.17
O=C(COC(=O)CCc1c[nH]c(=O)[nH]1)Nc1cccc(Cl)c1	1.2	1.2
Cc1ccc(N=C2NC(=O)S/C2=C\c2ccco2)cc1	0.23	-0.74
O=C(CN1CCN(Cc2ccc(F)cc2Cl)C1=O)NCc1cccs1	0.65	0.76
COC(=O)COc1ccc(-n2cnnn2)cc1	1.8	0.3
Nc1c(C(=O)N2CCOCC2)oc2ccccc12	1.5	-0.86
The list continues:
SMILES	KCNQ2 enhance	KCNQ2 enhance baseline
Clc1ccc(OCCCCN2CCc3ccccc3C2)cc1	0.09	-2.6
Cc1cc(C)cc(N2C(=O)C3C4C=CC(C4)C3C2=O)c1 (centres undefined)	0.02	-1.4
Cc1ccc(S(=O)(=O)N2CCC(C(=O)Nc3nnc(-c4ccco4)s3)CC2)cc1	0.92	0.03
O=C(c1ccc(NS(=O)(=O)c2ccc3[nH]c(=O)[nH]c3c2)cc1)N1CCCC(C(F)(F)F)C1 (centres undefined)	1.7	-0.74
CCN1CCN(c2nc3c(c(=O)[nH]c(=O)n3C)n2Cc2ccccc2F)CC1	1.4	-2.7
COc1cccc(/C=C2/SC(=S)N(CC(=O)NC3C=CS(=O)(=O)C3)C2=O)c1 (centres undefined)	0.48	1.6
CCOc1cc2c3c(c1)C(C)=CC(C)(C)N3C(=O)C2=O	1.9	-2.3
CCOC(=O)N1CCN(S(=O)(=O)c2ccc(-n3cnnn3)cc2)CC1	0.49	1.3
CCN(CC)C(=O)CSc1nnc(-c2cccc(OC)c2)o1	1.3	-0.58
O=C(O)c1ccc(NC(=O)C(c2ccccc2)c2ccccc2)cc1	0.57	-0.45
CCC1C(=O)NCCN1C(=O)c1cccc(OC2CCN(S(=O)(=O)N(C)C)CC2)c1 (centres undefined)	0.33	-1.3
CNC(=O)COc1ccc(S(=O)(=O)Nc2ccc(C)cc2)cc1	0.11	0.16
COc1ccc(NC(=O)NCc2ccc(Cl)cc2)cc1	0.79	-0.53
COc1ccc(-c2[nH]ncc2CNCc2cc(C)n(C)n2)c(F)c1	0.76	0.02
Cc1ccc(NC(=O)CCC(=O)OCc2ccc(Br)cc2)cc1	0.08	-0.2
O=C(Cn1nc(-c2ccccc2)c2ccccc2c1=O)Nc1ccc(F)cc1	1.9	-0.05
O=[N+]([O-])c1cc(-c2nnc(-c3ccccc3)o2)ccc1Oc1ccc(Cl)cc1	0.38	0.47
COc1ccc(-c2nc3ncccn3c2Nc2ccc3c(c2)OCCO3)cc1	1.4	-1.9
CSc1nc(O)c(/C=C2\C=Nc3ccccc32)[nH]1	1.1	0
Cc1ccc(NC(=O)NCc2ccccn2)cc1	1.3	-0.04
O=C(O)CC(CC(=O)Nc1ccccc1C(=O)O)c1ccccc1 (centres undefined)	0.02	-1.2
O=S(=O)(c1ccc2c(c1)OCCO2)N1CCN(Cc2ccc3c(c2)OCO3)CC1	0.58	2.2
Cc1ccccc1OCC(=O)N/N=C/c1sc(=O)n(Cc2cccc(C(=O)O)c2)c1Cl	0.21	0.41
O=C(CSc1nnc(-c2ccncc2)n1Cc1ccco1)Nc1nccs1	0.67	1.1
CCn1ncc(Br)c1C(=O)Nc1cc(C(=O)OC)ccc1C(=O)OC	1.1	0.55
CCOc1ccc(NC(=O)/C(C#N)=C/c2cn(CC(=O)O)c3ccccc23)cc1	0.03	2.1
CN(C)S(=O)(=O)c1cccc(C(=O)Nc2ccc(S(=O)(=O)N3CCCC3)cc2)c1	0.81	0.44
Cc1ccc(S(=O)(=O)O/N=C2/CCCc3occc32)cc1	0.21	0.73
COc1ccccc1N(C(=O)CNC(=O)c1ccco1)C(C(=O)NC1CCCC1)c1ccco1 (centres undefined)	0.32	1.6
O=C(O)/C=C/c1cnc[nH]1	0.29	-0.04
O=C(CSc1ccccn1)Nc1ccc2c(c1)OCCO2	0.38	-0.25
Cc1cc(=O)oc2cc(OCC(=O)NC3CCCCC3)ccc12	0.04	1.9
Cc1ccc(C(=O)c2sc3nsc(C)c3c2N)cc1	1.1	0.06
Cc1cccnc1Nc1nc(-c2ccc(O)cc2O)cs1	0.32	-0.95
Cc1ccsc1/C=N/NC(=O)c1nnn(-c2nonc2N)c1-c1ccc2c(c1)OCO2	0.99	0.67
CN1CCN(c2ccc(S(=O)(=O)N3CCCCC3)cc2NC(=O)Cc2ccc(Cl)cc2)CC1	0.03	0.26
O=C(Oc1ccc2cccc(OC(=O)N3CCOCC3)c2c1)N1CCOCC1	1.2	0.04
CC(=O)N1N=C(c2ccccc2)CC1c1cccc([N+](=O)[O-])c1 (centres undefined)	0.5	0.01
CN(C(=O)COc1ccc(Cl)cc1)C1(C)CCS(=O)(=O)C1 (centres undefined)	0.42	0.75
Cc1nn(CC(=O)NCc2cccs2)c(=O)c2nn(-c3ccccc3)c(C)c12	0.26	-3.8

An excerpt from above in order of their number in KCNQ2 enhance baseline, highest first:
SMILES	KCNQ2 enhance	KCNQ2 enhance baseline
O=C(c1ccc(Cl)c(S(=O)(=O)NCc2ccco2)c1)N1CCN(c2ccccc2F)CC1	0.01	-0.06
O=C(CSc1ccccn1)Nc1ccc2c(c1)OCCO2	0.38	-0.25
Cc1nn(CCOc2ccccc2)c(=O)n1-c1cccc(F)c1	0.12	-0.36
O=[N+]([O-])c1ccc(C2=Nn3cnnc3SC2)cc1	0.02	-0.4
CCN(CC)C(=O)CSc1nnc(-c2cccc(OC)c2)o1	1.3	-0.58
C=CCN1C(=O)c2ccc(C(=O)N(C)CC(=O)Nc3ccc(Br)cc3C)cc2C1=O	0.32	-0.6

Next records.
SMILES	KCNQ2 enhance	KCNQ2 enhance baseline
O=C(COC(=O)c1cc(=O)[nH]c2ccccc12)Nc1ccc(Cl)cn1	0.75	1.3
CCN(CC)CCCNC(=O)c1ccccc1C	0.69	0.8
Cc1c(O)c(=O)ccn1Cc1ccccc1	0.59	-0.72
Cc1cc(N2CCOCC2)ccc1/C=C1\NC(=O)N(Cc2ccccc2)C1=O	0.95	0.54
O=C(Cn1nc(-c2cccc(Cl)c2)ccc1=O)NCC1COCCO1 (centres undefined)	0.82	0.68
O=C(NCC(=O)N(Cc1ccc(F)cc1)C(C(=O)NCC1CCCO1)c1ccccc1)c1ccco1 (centres undefined)	1.6	1.4
Cc1ccc(NC(=O)CSc2nc3[nH]ncc3c(=O)[nH]2)cc1	0.44	-3.1
O=C(Cn1c(=O)oc2cc(S(=O)(=O)N3CCCC3)ccc21)Nc1ccccc1Br	1.5	0.32
CCCC(=O)c1ccc(N2CCCCC2)c(F)c1	0.56	2.6
CC1(C)NC(=O)N(CCOCCOc2ccccc2)C1=O	0.64	-0.69
Cc1ccc(C)c(SCC(=O)NNC(=O)c2csc(N3CCOCC3)n2)c1	3.8	-0.48
COc1ccc(NC(=O)Cc2nnc(SCC(=O)c3ccc(F)cc3)n2C)cc1	0.05	-0.43
Cc1ccc(C)c(C2=CSC3=NCCN23)c1	0.32	2.1
COc1ccc(CC(=O)Nc2ccc(-c3noc(-c4ccccc4OC)n3)cc2)cc1	1.4	0.23
COC(=O)c1ccc(NC(=S)NC(=O)c2c(Cl)cnn2C)cc1	0.64	-1.9
O=C(O)c1ccc2cccc(O)c2n1	0.09	-0.24
Cn1c(NC(=O)c2ccco2)c(-c2ccccc2)c(=O)c2ccccc21	0.24	-0.55
CC(C)(C)C(=O)Nc1cccc(C(=O)c2cccc(NC(=O)C(C)(C)C)c2)c1	0.23	0.29
COc1cnc(-c2ccccn2)nc1Oc1cccc(C(F)(F)F)c1	0.71	-0.28
CC(=O)Nc1ccc(S(=O)(=O)NNC(=O)c2cccc3ccccc23)cc1	2	-0.74
CCOC(=O)N1CCC(NC(=O)c2ccc(N3CCC4(CC3)OCCO4)c([N+](=O)[O-])c2)CC1	0.63	-0.21

Compounds shown so far containing a nitro group on carbon, in the order listed:
SMILES	KCNQ2 enhance	KCNQ2 enhance baseline
CCN(CC)c1c([N+](=O)[O-])c(=O)oc2ccccc12	0.62	0.25
O=C(/C=C/c1cc([N+](=O)[O-])ccc1OC(F)F)Nc1cccc2ccccc12	0.06	-1.4
O=[N+]([O-])c1ccc(C2=Nn3cnnc3SC2)cc1	0.02	-0.4
CN(C)C(=O)NC(Nc1cccc([N+](=O)[O-])c1)C(Cl)(Cl)Cl (centres undefined)	1.7	0.27
O=[N+]([O-])c1cc(-c2nnc(-c3ccccc3)o2)ccc1Oc1ccc(Cl)cc1	0.38	0.47
CC(=O)N1N=C(c2ccccc2)CC1c1cccc([N+](=O)[O-])c1 (centres undefined)	0.5	0.01
CCOC(=O)N1CCC(NC(=O)c2ccc(N3CCC4(CC3)OCCO4)c([N+](=O)[O-])c2)CC1	0.63	-0.21

Not all compounds are listed. The share of hits here may be higher or lower than overall.
